FGF22 binding: FGF22 (human) thermal shift binding; Q9HCT0; recombinant FGF22 thermal shift, SYPRO orange fluorescence; percent of sucrose octasulfate shift, DMSO zero; calls only at 9.99 µM; 340,000 tested, 1.5% active; AID 651658;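 active means melting point raised past a set limit in the mean and every replicate; three in four hits are not shown here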
Target sequence (Q9HCT0 whole entry, looked up): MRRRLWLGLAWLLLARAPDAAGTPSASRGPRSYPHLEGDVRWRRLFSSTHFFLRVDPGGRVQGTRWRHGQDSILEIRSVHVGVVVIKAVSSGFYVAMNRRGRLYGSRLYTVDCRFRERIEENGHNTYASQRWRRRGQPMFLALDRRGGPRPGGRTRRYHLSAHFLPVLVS
Ecoli rRNA inh: inhibitors of bacterial rRNA selective over humanized ribosomes | E. coli WT GFP vs humanized-ribosome RFP mutants, fluorescence, 24 h; stronger effect = lower value; DMSO median 0, no signal -100 | AID 720706 | GFP signal change (wild-type ribosome), % (no concentration beside the values) | 350,000 tested, 1.6% active;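 active means significant combined selectivity score with lowered wild-type GFP, culture density cut under 30%, mutant RFP and density less affected; inactive means any of these conditions unmet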; further: one replicate is shown; some compounds called inactive have numbers as strong as hits
Ecoli rRNA inh OD600: recorded beside Ecoli rRNA inh, whose call it bears; OD600 change, %; measured here: OD600 growth;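 optical density of the mix in the first replicate; 0 = DMSO median and -100 = no signal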
Ecoli rRNA inh RFP: also measured in Ecoli rRNA inh; calls as there; RFP signal change, %; measured here: RFP humanized mutant strains;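 first replicate; 0 = DMSO median and -100 = no signal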
* marks the source's active call; other numbers are inactive results; i = inactive; + = active, no number; & = joins results of further samples. The list is partial; rates above refer to the full screens.

The line under a structure holds: FGF22 binding, Ecoli rRNA inh, Ecoli rRNA inh OD600, Ecoli rRNA inh RFP
> CCCC#Cc1ccc([C@H]2[C@@H](CO)N3CCCCN(C(=O)c4ccc5c(c4)OCO5)C[C@@H]23)cc1
  i, -19, -54, 13
> CC(C)c1cn(CC[C@H]2CC[C@@H](NC(=O)c3cccc(F)c3)[C@H](CO)O2)nn1
  i, 0, 2, -3.8
> CN(C)C(=O)[C@@H]1[C@@H](CO)[C@@H]2Cn3c(ccc(-c4cncnc4)c3=O)[C@@H]2N1Cc1cc(F)ccc1F
  i, 1, 2, -3.1
> Cc1noc(C)c1NC(=O)Nc1ccc2c(c1)C(=O)N([C@@H](C)CO)C[C@@H](C)[C@H](CN(C)S(=O)(=O)c1c(C)noc1C)OCCCC[C@@H](C)O2
  i, -1, 5, 1.3
> C[C@H]1CN([C@@H](C)CO)C(=O)Cc2cc(NC(=O)Cn3cnnn3)ccc2O[C@@H]1CN(C)Cc1ccc(Oc2ccccc2)cc1
  i, -11, -43, 34
> Cc1ccccc1-c1ccc(C2[C@@H]3CN(Cc4cncnc4)C[C@H]2N3)cc1 (stereo partly drawn)
  i, -3&-8, -10&-4, 3.7&5.2
> COc1ccccc1S(=O)(=O)N[C@@H]1CC[C@H](CCNC(=O)C2CCOCC2)O[C@H]1CO
  i, 0, 6, -1.4
> O=C(C1CCOCC1)N1CC(=O)N2[C@H](CO)[C@H](c3ccc(/C=C/c4ccccc4)cc3)[C@@H]2C1
  i, 2, 1, -0.4
> C[C@@H]1CCCCO[C@@H](CN(C)S(=O)(=O)c2ccc(Cl)cc2)[C@@H](C)CN([C@@H](C)CO)C(=O)c2cc(NC(=O)CCCN(C)C)ccc2O1
  i, -1, -5, -0.6
> COc1ccc(S(=O)(=O)N(C)C[C@@H]2Oc3ccc(NC(=O)C4CC4)cc3C(=O)N([C@H](C)CO)C[C@H]2C)cc1
  i, 3, 6, -1.0
> N#C[C@@H]1[C@@H](c2ccccc2)[C@@H](CO)N1C(=O)Cc1ccccc1
  i, 2, 18, -4.0
> CO[C@H]1CN(C)C(=O)c2ccc(NC(=O)c3ccccc3F)cc2OC[C@H](C)N(C(C)=O)C[C@@H]1C
  i, -2, -2, 0.7
> C[C@H]1CCCCO[C@H](CN(C)C(=O)CCCN(C)C)[C@@H](C)CN([C@@H](C)CO)C(=O)c2cc(NC(=O)Nc3ccc4c(c3)OCO4)ccc2O1
  i, 3, 6, -1.4
> C[C@@H]1CN([C@H](C)CO)C(=O)c2cc(C#C[C@@H](C)O)cnc2O[C@H]1CN(C)C(=O)Cc1ccncc1
  i, 8, 12, 5.7
> CN1C(=O)c2cc(NC(=O)c3cccs3)ccc2OC[C@H]2O[C@H](CC(=O)N3CCOCC3)CC[C@H]21
  i, 2, 1, -0.7

Fetched one by one from the list above, 4 records:
The line under a structure holds: FGF22 binding, Ecoli rRNA inh, Ecoli rRNA inh OD600, Ecoli rRNA inh RFP
> COc1ccc(S(=O)(=O)N(C)C[C@@H]2Oc3ccc(NC(=O)C4CC4)cc3C(=O)N([C@H](C)CO)C[C@H]2C)cc1
  i, 3, 6, -1.0
> C[C@H]1CN([C@@H](C)CO)C(=O)Cc2cc(NC(=O)Cn3cnnn3)ccc2O[C@@H]1CN(C)Cc1ccc(Oc2ccccc2)cc1
  i, -11, -43, 34
> CN1C(=O)c2cc(NC(=O)c3cccs3)ccc2OC[C@H]2O[C@H](CC(=O)N3CCOCC3)CC[C@H]21
  i, 2, 1, -0.7
> C[C@@H]1CCCCO[C@@H](CN(C)S(=O)(=O)c2ccc(Cl)cc2)[C@@H](C)CN([C@@H](C)CO)C(=O)c2cc(NC(=O)CCCN(C)C)ccc2O1
  i, -1, -5, -0.6

Following part:
The line under a structure holds: FGF22 binding, Ecoli rRNA inh, Ecoli rRNA inh OD600, Ecoli rRNA inh RFP
> CC=Cc1ccc2n(c1=O)C[C@H]1[C@H](CO)[C@@H](C(=O)N[C@@H](C)c3ccccc3)[C@@H]2N1Cc1cncnc1 (mixture of isomers)
  i, 0, 16, -0.1
> COc1cccc(NC(=O)N(C)C[C@@H]2Oc3cc(/C=C/c4ccccc4)ccc3S(=O)(=O)N([C@@H](C)CO)C[C@H]2C)c1
  i, -3, 5, -2.7
> O=C(C[C@@H]1CC[C@H]2[C@@H](COC[C@@H](O)CN2Cc2cc(F)ccc2F)O1)N[C@H]1CCN(Cc2ccccc2)C1
  i, -6, -12, -0.8
> O=C(c1cnccn1)N1CC[C@@H]2[C@@H](CO)Nc3ccc(-c4ccccc4F)cc3[C@@H]21
  i, 1, -4, -3.5
> Cc1ccccc1S(=O)(=O)N1C[C@@H](O)COC[C@@H]2O[C@H](CC(=O)O)CC[C@H]21
  i, 4, 4, -2.2
> CCCC(=O)Nc1ccc2c(c1)C(=O)N(C)C[C@@H](OC)[C@H](C)CN(C(=O)CC1CC1)[C@@H](C)CO2
  i, 3, -1, -1.2
> C[C@@H]1CN([C@@H](C)CO)S(=O)(=O)c2ccc(C3=CCCC3)cc2O[C@H]1CN(C)Cc1cccnc1
  i, -2, 10, -1.3
> C[C@@H]1CN([C@H](C)CO)C(=O)c2c(c3ccccc3n2C)-c2ccccc2CO[C@@H]1CN(C)C(=O)Nc1cccc(C(F)(F)F)c1
  i, 2, -5, -0.3
> Cc1cccc(S(=O)(=O)N[C@H]2CC[C@H](CCNC(=O)CCN3CCCCC3)O[C@@H]2CO)c1
  i, -1, 1, -4.3
> CC(C)NC(=O)N(C)C[C@H]1OCCCC[C@@H](C)Oc2ccc(NS(=O)(=O)c3ccc(F)cc3)cc2C(=O)N([C@H](C)CO)C[C@@H]1C
  i, -3, 3, 1.8
> C[C@@H]1CN([C@H](C)CO)C(=O)c2ccccc2-c2ccccc2CO[C@H]1CN(C)S(=O)(=O)c1ccccc1
  i, -1, 4, -2.1
> C[C@H](CO)N1C[C@H](C)[C@@H](CN(C)Cc2ccc(C(F)(F)F)cc2)Oc2ccc(NC(=O)Nc3ccccc3)cc2CC1=O
  i, 4, -2, 1.7
> COc1ccc(NC(=O)Nc2ccc3c(c2)CC(=O)N([C@H](C)CO)C[C@H](C)[C@@H](CN(C)C(=O)Nc2ccccc2)O3)cc1
  i, 4, 6, 1.1
> Cc1noc(C)c1NC(=O)N(C)C[C@H]1Oc2c(NC(=O)C3CCCCC3)cccc2C(=O)N([C@H](C)CO)C[C@H]1C
  i, 0, 9, -0.2
> C[C@@H]1CCCCO[C@@H](CN(C)Cc2ccc(C(F)(F)F)cc2)[C@@H](C)CN([C@@H](C)CO)C(=O)c2cc(NS(=O)(=O)c3ccc(Cl)cc3)ccc2O1
  i, 4, -1, 4.7

(list continues)
The line under a structure holds: FGF22 binding, Ecoli rRNA inh, Ecoli rRNA inh OD600, Ecoli rRNA inh RFP
> Cn1cnc(S(=O)(=O)N[C@@H]2C=C[C@H](CC(=O)Nc3ccc(-c4ccccc4)cc3)O[C@@H]2CO)c1
  i, -4, -5, 0.0
> COc1ccc(CN(C)C[C@@H]2OCCCC[C@@H](C)Oc3ccc(NS(C)(=O)=O)cc3C(=O)N([C@@H](C)CO)C[C@@H]2C)cc1
  i, 1, 5, 1.2
> CCC(=O)N1CCCCN2[C@H](C1)[C@H](c1ccc(-c3cccc(C#N)c3)cc1)[C@@H]2CO
  i, -5, -15, 1.4
> COc1cccc(-c2cnc3c(c2)C(=O)N([C@H](C)CO)C[C@H](C)[C@@H](CN(C)C(=O)Nc2ccccc2F)O3)c1
  i, -2, 0, -1.7
> CN1C(=O)c2cc(NS(C)(=O)=O)ccc2OC[C@H]2O[C@@H](CC(=O)N3CCOCC3)CC[C@H]21
  i, 4, 6, -1.8
> C/C=C/c1ccc([C@@H]2[C@H](CO)N[C@H]2CN(CC(C)C)C(=O)c2ccccn2)cc1
  i, -3, -2, -0.6
> O=C(C[C@@H]1CC[C@H](NC(=O)C2CC2)[C@H](CO)O1)NCC1CC1
  i, 2, 7, -0.9
> C[C@@H]1CN([C@@H](C)CO)C(=O)Cc2cc(NS(=O)(=O)c3ccc(Cl)cc3)ccc2O[C@@H]1CN(C)Cc1ccc(C(=O)Nc2ccccc2N)cc1
  i, -5, -12, -0.7
> CC(C)C#Cc1cnc2c(c1)C(=O)N([C@@H](C)CO)C[C@H](C)[C@H](CN(C)C(=O)Nc1cccc(F)c1)O2
  i, 0, -2, 3.2
> O=C(NCc1ccncn1)[C@@H]1[C@@H](CO)[C@@H]2Cn3c(cccc3=O)[C@H]1N2CC1CC1
  i, 1, 9, -1.5
> CO[C@H]1CN(C)C(=O)c2ccc(NC(=O)Nc3cccc(F)c3)cc2OC[C@H](C)N(C(=O)C2CC2)C[C@@H]1C
  i, -4, -11, 1.1
> CC(C)NC(=O)Nc1ccc2c(c1)C(=O)N([C@@H](C)CO)C[C@H](C)[C@H](CN(C)C(=O)c1ccccc1)OCCCC[C@@H](C)O2
  i, 4, 3, 0.3
> Cc1noc(C)c1S(=O)(=O)N(C)C[C@H]1Oc2c(NC(=O)c3cnccn3)cccc2C(=O)N([C@@H](C)CO)C[C@H]1C
  i, 1, 14, -0.5
> CCCC(=O)Nc1ccc2c(c1)C(=O)N(C)C[C@@H](OC)[C@@H](C)CN(C(=O)CC1CC1)[C@@H](C)CO2
  i, 0, 8, 0.0
> COc1ccc2c3c(n(C)c2c1)[C@@H](CO)N(C(=O)C1CC1)CC31CCN(C(=O)Nc2cccc(F)c2)CC1
  i, -4, 2, 0.8

Other records
The line under a structure holds: FGF22 binding, Ecoli rRNA inh, Ecoli rRNA inh OD600, Ecoli rRNA inh RFP
> COc1cc(CN2CC3(CCN(C(=O)CN4CCOCC4)CC3)c3c(n(C)c4cc(OC)ccc34)[C@H]2CO)cc(OC)c1
  i, 2, -1, 1.8
> C[C@H]1CN([C@@H](C)CO)C(=O)c2cc(NC(=O)Nc3ccccc3)ccc2O[C@@H]1CN(C)S(=O)(=O)c1ccccc1
  i, -3, -5, 3.1
> CCCN1C[C@H](C)[C@H](OC)CN(C)C(=O)c2cc(NC(=O)c3cnccn3)ccc2OC[C@@H]1C
  +, 0, -5, 0.8
> C[C@@H](O)C#Cc1ccc2c(c1)O[C@H](CN(C)C(=O)c1ccccc1)[C@@H](C)CN([C@@H](C)CO)S2(=O)=O
  i, 3, 1, -1.4
> O=C(O)C[C@@H]1C[C@H]2c3cc(NC(=O)NC4CCCC4)ccc3O[C@H]2[C@H](CO)O1
  i, 1, 6, 0.3
> CNC[C@H]1OCCCC[C@@H](C)Oc2ccc(NS(=O)(=O)c3ccc(F)cc3)cc2C(=O)N([C@H](C)CO)C[C@@H]1C
  i, 1, 7, 1.7
> C[C@H](CO)N1C[C@H](C)[C@@H](CN(C)S(=O)(=O)c2ccccc2)Oc2ccc(NC(=O)NC3CCCCC3)cc2CC1=O
  i, -3, -8, 3.4
> C[C@H](CO)N1C[C@H](C)[C@@H](CN(C)S(=O)(=O)c2cccs2)OCCCC[C@H](C)Oc2ccc(NS(=O)(=O)c3ccc(F)cc3)cc2C1=O
  i, -6, -6, 0.5
> C[C@H]1CN([C@@H](C)CO)S(=O)(=O)c2ccc(C#CC3CC3)cc2O[C@H]1CN(C)C(=O)c1ccccc1
  i, 0, -15, 8.8
> Cc1noc(C)c1NC(=O)NCC[C@H]1CC[C@@H](NC(=O)c2ccc(F)cc2)[C@@H](CO)O1
  i, 3, -6, -1.9
> C[C@H](CO)N1C[C@H](C)[C@@H](CN(C)C(=O)Nc2ccc(C(F)(F)F)cc2)OCCCC[C@H](C)Oc2ccc(NS(=O)(=O)c3ccccc3)cc2C1=O
  i, 2, -5, 0.5
> C[C@@H]1CN([C@H](C)CO)C(=O)c2cc(C3=CCCC3)cnc2O[C@H]1CN(C)C(=O)C1CCC1
  i, -2, 2, -1.8
> COC(=O)C1=C(C)N(C)C(=NCc2ccc(OC)cc2)NC1c1ccc(C(F)(F)F)cc1 (stereo not drawn)
  i, -45, -77, -2.7
> CN1C(=O)c2cc(NC(=O)Cc3cccs3)ccc2OC[C@@H]2O[C@@H](CC(=O)O)CC[C@H]21
  i, 4, 4, 0.0
> COc1ccccc1NC(=O)N(C)C[C@@H]1OCc2cn(nn2)CCCC(=O)N([C@H](C)CO)C[C@@H]1C
  i, -2, 0, -1.2

Carrying on:
The line under a structure holds: FGF22 binding, Ecoli rRNA inh, Ecoli rRNA inh OD600, Ecoli rRNA inh RFP
> COCC(=O)N1[C@H](CO)[C@H]2c3ccccc3N(C(=O)Nc3ccccc3Cl)C[C@H]21
  i, 2, 1, 1.9
> COc1ccc2c3c(n(C)c2c1)[C@@H](CO)N(C(=O)c1ccncc1)CC31CCN(C(C)=O)CC1
  i, 3, 10, -1.9
> CN(C)C(=O)C[C@H]1C=C[C@H](NC(=O)C2CC2)[C@@H](CO)O1
  i, -1, -1, 0.3
> C[C@@H]1CCCCO[C@H](CN(C)S(=O)(=O)c2cccs2)[C@H](C)CN([C@H](C)CO)C(=O)c2cc(NC(=O)NC3CCCCC3)ccc2O1
  i, -3, 14, 0.7
> COc1ccc(CN(C)C[C@H]2Oc3ccc(NC(=O)NC(C)C)cc3CC(=O)N([C@H](C)CO)C[C@@H]2C)cc1
  i, 4, 1, -1.7
> CO[C@@H]1CN(C)C(=O)c2cc(NS(=O)(=O)c3cn(C)cn3)ccc2OC[C@H](C)N(CC2CC2)C[C@@H]1C
  i, 4, 6, -1.9
> COc1ccc(S(=O)(=O)N(C)C[C@@H]2Oc3c(NS(=O)(=O)c4ccc(C)cc4)cccc3C(=O)N([C@H](C)CO)C[C@H]2C)cc1
  i, -2, -3, 3.8
> COc1ccc2c3c(n(C)c2c1)[C@@H](CO)N(C(=O)CN(C)C)CC31CCN(C(=O)C2CCC2)CC1
  i, 2, 6, -1.4
> O=C(NC(C(=O)N1CCCC1C(=O)NC1CCCC1)c1ccccc1)c1cccs1 (stereo not drawn)
  i, 6, 9, 5.8
